# Compound activity deposited in PubChem BioAssay by National Center for Advancing Translational Sciences (NCATS).
# Vaccinia mCherry – vaccinia inhibition (mCherry reporter); 0.63% of 310,000 active; Vaccinia virus mCherry reporter infection, fluorescence; about a quarter of the inactives have no number; Potency, µM (highest dose often 36.5 µM), for the others: at the highest dose activity change, negative = inhibition, hits mostly inhibitors; AID 720579; active = well fitted inhibition curve with a large enough effect; inconclusive = small, poorly fitted or top-dose-only effect; inactive = no such curve, though single readings can be large or run the other way; tested in A549 cells; also: nearly all actives have a fitted effect of over 35% in size; inactives centre near -10
# VACV Venus inh – inhibitors of vaccinia virus (Venus reporter); Vaccinia virus Venus reporter expression, fluorescence; Potency, µM (highest dose often 36.5 µM), for inactives: top-dose activity change, negative = inhibition, hits mostly inhibitors; 0.46% of 330,000 active; AID 720580; active means well fitted inhibition curve with a large enough effect; inconclusive means small, poorly fitted or top-dose-only effect; inactive means no such curve, though single readings can be large or run the other way; tested in A549 cells; also: nearly all actives have a fitted effect of over 30% in size; inactives centre near -10
# The depositor's hits bear a star; i = inactive; u = inconclusive; x = no result given; & = joins results of further samples; [ ] = remark or other dose. % is scaled to controls: 0 for no effect and ±100 for the full control effect; potency is read from the fitted curve at half-maximal effect. Compounds as they come; any-hit rate near 0.82%.
# A first look (three entries):
structure | Vaccinia mCherry | VACV Venus inh
Cc1ccc(Nc2nc(N)nc(CSc3nnc(C)s3)n2)cc1 | -20% | -8%
O=C(O)c1ccc2c(=O)n(-c3ccccc3F)c(=S)[nH]c2c1 | 0% | 3%
O=S(=O)(NCc1ccncc1)c1ccc(Br)s1 | -26% | u

# All compounds of this part, repeating the preview:
structure | Vaccinia mCherry | VACV Venus inh
Cc1ccc(Nc2nc(N)nc(CSc3nnc(C)s3)n2)cc1 | -20% | -8%
O=C(O)c1ccc2c(=O)n(-c3ccccc3F)c(=S)[nH]c2c1 | 0% | 3%
O=S(=O)(NCc1ccncc1)c1ccc(Br)s1 | -26% | u
COc1cccc(/C=C/C(=C2\C(=O)N(c3ccccc3)N=C2C)c2ccc(Br)cc2)c1OC | -18% | -6%
CC(C)Oc1nnnn1-c1ccccc1 | x | -6%
Cc1ccc(C(C)C)c(OCCCN(C)Cc2ccccc2)c1 | -21% | -13%
CCOc1ccc(S(=O)(=O)c2cn(Cc3ccccc3C)c3ccc(OC)cc3c2=O)cc1 | 9% | 15%
O=C(CCc1nnc2ccc(NCc3ccccc3Cl)nn12)NCC1CCN(C2CCCC2)C1 (configuration not stated) | -12% | -11%
CCOC(=O)C1(CCOc2ccccc2)CCN(Cc2cnc(SC)nc2)CC1 | -15% | -5%
CCOC(=O)c1cc2sccc2n1CC(=O)Nc1ccc2c(c1)OCCO2 | -22% | -8%
CC(=O)NCc1nnc2c3ccccc3c(-c3ccccc3)nn12 | i | -8%
OCCCn1c(C2CCCN2c2nc(-c3ccc(Cl)cc3)cs2)nc2cc(Cl)c(Cl)cc21 (configuration not stated) | u | -26%
COC(=O)c1cn([C@@H]2C[C@@H](C(=O)N3CCCCCC3)N(Cc3cc4ccccc4s3)C2)nn1 | -7% | -8%
Cc1cc(-c2ccc(C)c(S(=O)(=O)Nc3ccccc3C(F)(F)F)c2)on1 | -8% | -4%
COc1ccc(NC(=O)COC(=O)c2ccc(NS(=O)(=O)/C=C/c3ccccc3)cc2)cc1 | -17% | -5%
CC1(C(=O)NS(=O)(=O)c2ccccc2)CCN1C(=O)C1CCCCC1 (configuration not stated) | i | 2%
Cc1cc(C)n2nc(C(=O)N3CCCC(Nc4ccc(F)c(F)c4)C3)cc2n1 (configuration not stated) | -20% | -13%
Cc1cccc(NC(=O)c2cc(NC(=O)c3ccco3)ccc2N2CCCCC2)c1 | -19% | -9%
COc1ccc(C(CC(=O)c2ccccc2)C2CCCCC2=O)cc1 (configuration not stated) | -15% | -12%
COc1ccc(C)cc1NC(=O)c1cc(S(=O)(=O)N2CCC(C)CC2)ccc1F | -8% | -13%
C/C(N)=C(/C#N)C(=O)COC(=O)c1ccc(C)c(S(=O)(=O)N2CCCCC2)c1 | -26% | -13%
O=C(NC1CCCCC1)c1cc2c(cc1Cl)N1CCCCCC1=NS2(=O)=O | -8% | -3%
C=CCSc1nc(C)cc2c1C(=O)OC2 | -3% | -9%
O=C(c1cccnc1)N1CCN(S(=O)(=O)c2cccc(Cl)c2)CC1 | u | -28%
O=C(NCCc1ccccn1)c1ccc(NS(=O)(=O)c2ccc(F)cc2)cc1 | -18% | -14%
Cc1cccc(NC(=O)c2ccc(C)c(S(=O)(=O)N3CCOCC3)c2)n1 | -19% | -17%
CC1CCN(S(=O)(=O)c2cc3c4c(c2)C(C)C(=O)N4CCC3)CC1 (configuration not stated) | -11% | -9%
CC1CCN(S(=O)(=O)c2cnc(Cl)c(Br)c2)CC1 | -15% | -4%
CCOC(=O)N1CCN(C(=O)CCc2cc(OC)c(OC)c(OC)c2)CC1 | -10% | -1%
Cn1c2ccccc2c2cnn(CC(=O)Nc3cccc(F)c3)c(=O)c21 | i | -1%
CC(Cc1ccccc1)NC(=O)CN1CCCC1=O (configuration not stated) | -1% | -15%
Cc1cc(C)cc(Nc2ccc(C(=O)O)cc2N)c1 | x | -7%
Cc1ccc(Sc2c(C)nn(C(=O)COc3ccc(F)cc3)c2C)cc1 | -9% | -3%
CCOC(=O)[C@]12CCCC=C1N(Cc1ccccc1)C(=O)[C@H](CC(=O)NCCCN1CCCC1=O)C2 | u | -1%
Fc1ccccc1CSc1nnnn1-c1ccc2c(c1)OCO2 | i | -17%
CCCCN(C(=O)CCCc1nc2ccccc2s1)c1c(N)n(CCCC)c(=O)[nH]c1=O | -15% | -16%
O=C(NC1=NCCS1)c1cc(-c2ccc(-c3ccccc3)cc2)nc2ccccc12 | -1% | 2%
COc1ccc(NC(=O)COC(=O)c2c(NC(C)=O)sc(C)c2C)cc1 | i | u
COc1ccc(-c2nnc(SCC(=O)N3CCOCC3)o2)cc1OC | u | -17%
CCCCNC(=O)/C(C#N)=C/c1ccc(-c2ccc(S(=O)(=O)N3CCOCC3)cc2)o1 | i | -21%
COc1ccc(NC(=O)COC(=O)C2=COCCO2)cc1OC | -16% | -10%
O=C(CSc1ccc(Cl)cc1)NC(=O)NC1CCCC1 | i | -4%
Cc1cc(C)cc(NC(=O)C(Cc2ccccc2)NS(=O)(=O)c2ccc3c(c2)c(=O)n(C)c(=O)n3C)c1 (configuration not stated) | -27% | -24%
N[C@@H](C(=O)O)[C@@H](CC(=O)O)c1ccc(Cl)cc1 | -14% | -2%
COc1ccc(C(=O)N/N=C/c2ccc(N3CCOCC3)o2)cc1OC | -20% | -16%
COc1cccc(NS(=O)(=O)c2ccc3c(c2)N(C(C)=O)CCS3)c1 | -21% | -16%
COP(=O)(OC)c1nc(-c2cccc3ccccc23)oc1N1CCCCC1 | -17% | -24%
COc1ccc(CC(C)NCCc2ccc(OC)c(OC)c2)cc1 (configuration not stated) | -17% | -10%
CCC(C)[C@@H](CN(N=O)[C@@H](Cc1ccccc1)CN(C)N=O)N(CCc1ccccc1)N=O (some centres not stated) | 0% | -11%
OCCN(CCO)Cc1csc2ccccc12 | i | -7%
Cc1cccc(C)c1NC(=O)CN(C)CC(=O)Nc1cc(Cl)ccc1C#N | -7% | -8%
CCN(CC)c1ccc(NC(=O)c2sc3nc(-c4ccccc4)cn3c2C)cc1 | -7% | u
O=c1[nH]c(=S)[nH]c(O)c1/C=C1/C=c2ccccc2=N1 | i | -16%
CCCN1C(=O)CC(c2ccc(OC)c(OC)c2)C1=O (configuration not stated) | i | 2%
O=C(CSc1nc(-c2cccs2)nc2cc(=O)[nH]n12)Nc1cccc(C(F)(F)F)c1 | 1% | -7%
COCCN(CCOC)S(=O)(=O)c1ccc(C(=O)NCCCN2CCOCC2)cc1 | -14%[1.46 µM] | -8%
CCOC(=O)c1cc2c(ccn2C)n1CC(=O)N(CC)CC | -15% | -12%
COc1ccc(S(=O)(=O)N(C)C)cc1NC(=O)COc1ccc2c(c1)CCC2 | -13% | 5%
Cc1cccc(NC(=O)c2nc[nH]c2C(=O)NCC(=O)OC(C)(C)C)c1 | u | u
COc1cc(/C=N/NC(=O)NC2CCCCC2)ccc1O | u | -4%

# Single records, from the list above. Values in the order: Vaccinia mCherry | VACV Venus inh
# Shown for `Cc1cccc(NC(=O)c2cc(NC(=O)c3ccco3)ccc2N2CCCCC2)c1` : -19% | -9%
# Shown for `O=C(CSc1nc(-c2cccs2)nc2cc(=O)[nH]n12)Nc1cccc(C(F)(F)F)c1` : 1% | -7%
# Shown for `COC(=O)c1cn([C@@H]2C[C@@H](C(=O)N3CCCCCC3)N(Cc3cc4ccccc4s3)C2)nn1` : -7% | -8%
# Shown for `CCC(C)[C@@H](CN(N=O)[C@@H](Cc1ccccc1)CN(C)N=O)N(CCc1ccccc1)N=O` (some centres not stated) : 0% | -11%
# Shown for `CC(Cc1ccccc1)NC(=O)CN1CCCC1=O` (configuration not stated) : -1% | -15%

# (list continues)
structure | Vaccinia mCherry | VACV Venus inh
Cc1cc(OCCCn2ccnc2)cc(C(C)C)c1 | -5% | u
COCCN(C(=O)CSc1cc(C)c2ccccc2n1)c1c(N)n(CC(C)C)c(=O)[nH]c1=O | -17% | -6%
CCOc1ccccc1/C=N\Nc1cnn(Cc2ccccc2)c(=O)c1Cl | u | -12%
COc1ccc(C(=O)COC(=O)CCCC(=O)NC2CCCCC2)cc1 | -6% | -7%
O=[N+]([O-])c1ccc2nonc2c1Nc1ccccc1 | i | -17%
COc1ccc(C(=O)NCCn2nc(C)cc2C)cc1OC1CCN(C(C)=O)CC1 | -12% | -8%
COc1cc(NC(=O)NCC2CCN(Cc3ccccc3F)CC2)cc(OC)c1 | -28% | -9%
Cc1ccsc1/C=N/NC(=S)NCc1ccccc1 | -22% | -11%
COc1ccc(NC(=O)Cn2c(=O)n(-c3cccc(C(F)(F)F)c3)c(=O)c3sccc32)cc1 | -23% | -22%
Cc1onc(-c2c(Cl)cccc2Cl)c1C(=O)NNC(=O)c1c(-c2c(Cl)cccc2Cl)noc1C | i | -11%
CC(C)CCn1c(N)c(C(=O)NCc2cccs2)c2nc3ccccc3nc21 | -9% | -8%
Cc1ccc(OCCC(=O)OCC(=O)Nc2ccc3c(c2)OCO3)cc1 | u | -12%
COc1ccc2c(c1)C=C/C2=C\c1ccc(N(C)C)cc1 | -13% | -11%
CCOC(=O)N1CCc2c(sc(NCc3sccc3C)c2C(=O)Nc2cc(OC)ccc2OC)C1 | -6%[7.34 µM] | -8%[7.34 µM]
CCCc1cc(C(=O)N2CCCC(CO)(CCCc3ccccc3)C2)n(C)n1 (configuration not stated) | u | -23%
CC(=O)NNC(=O)c1ccncc1 | -11% | -5%
CCCCC[C@H](C)N1C[C@H](COCc2ccccc2)Oc2cc(N3CCC[C@H]3COC)ccc2S1(=O)=O | -3% | 0%
CCOC(=O)N(C)C[C@@H]1OCc2cnnn2CCCC(=O)N([C@@H](C)CO)C[C@@H]1C | -26% | -9%
CSc1nsc(SC)c1C(=O)N1CCN(S(=O)(=O)c2ccc(C)cc2)C1C (configuration not stated) | x | -4%
CCOCCc1nnc(NC(=O)c2cccs2)s1 | -6% | -4%
CCCC(C(=O)NCc1ccc(OC)cc1)N(Cc1ccco1)C(=O)c1snc(C(N)=O)c1N (configuration not stated) | -12% | -1%
CCn1cc(C2=NC(C(C)C)CO2)c2ccccc21 (configuration not stated) | u | u
CCOc1ccc(S(=O)(=O)NCCC(=O)N2CCN(c3ccccc3O)CC2)cc1 | -17% | u
CC(C)c1onc(C(=O)N2CCCCC2)c1[N+](=O)[O-] | -15% | -23%
Cc1cccc(NC(=O)CSc2nnc(CNC(=O)c3ccc(S(=O)(=O)N(C)C)cc3)n2-c2ccc(F)cc2)c1 | -27% | -19%
Cc1ccc(N(C(C)C(=O)N2CCN(Cc3ccccc3)CC2)S(C)(=O)=O)cc1 (configuration not stated) | i | -14%
O=[N+]([O-])c1ccc(N/N=C\c2cccn2-c2ccccc2)nc1 | x | u
CC1(S(=O)(=O)O)CC(=O)c2ccccc2C1=O (configuration not stated) | -7% | 78%[activator]
COc1cc(NC(=O)Cn2cnc(S(=O)(=O)N3CCCC3)c2)cc(OC)c1OC | -15%[7.34 µM] | -9%[7.34 µM]
COc1ccc(NC(=O)C2Cc3c(-c4cccc(F)c4)ccnc3O2)cc1OC (configuration not stated) | -3% | -20%
Cc1ccccc1CNC(=O)c1sc2ncnc(N(C)C3CCCCC3)c2c1C | -5% | -9%
COc1cc(OC)c(C(=O)NNC(=O)CN(C)S(=O)(=O)c2ccc(Cl)cc2)cc1OC | -22% | -8%
O=C(NCCCN1CCOCC1)c1cc(S(=O)(=O)N2CCN(c3ccccc3)CC2)ccc1Cl | -20% | -3%
COc1ccc(C(=O)NCC(=O)N2CCN(c3ccc(Cl)cc3)CC2)cc1 | -7% | -7%
COc1cc(CN2CCC3(CCC(CNC(=O)c4ccccc4)O3)CC2)cc(OC)c1 (configuration not stated) | i | -6%
c1coc(-c2ccnc(-c3ccncc3)n2)c1 | i | -10%
Cc1cccc(C)c1OCc1nnc(NC(=O)CSc2ccc(Cl)cc2)s1 | -3% | -11%
Cc1noc(C(=O)N2CCN(Cc3ccc4c(c3)OCO4)CC2)c1Cl | -6% | -10%
CC(c1ccccc1)C(CC(=O)O)C(=O)Nc1ccc(Cl)c(Cl)c1 (configuration not stated) | -1% | 10%
CCOc1ccc(CN(C)CC(=O)Nc2cc(OC)c([N+](=O)[O-])cc2C)cc1 | -9% | 0%
COc1ccc(C(=O)CSc2nnc(Cn3nnc4ccccc43)n2C)cc1 | i | -8%
CC1([N+](=O)[O-])COC(C=Cc2ccccc2)OC1 (configuration not stated) | -19% | 5%
COCCNC(=O)C(c1ccc(O)cc1)N(Cc1ccccc1)C(=O)CCC(=O)Nc1nccs1 (configuration not stated) | 4% | -1%
Cc1cccc(-n2ncc3c2CCCC3NC(=O)CC(F)(F)F)c1C (configuration not stated) | -1% | 1%
CCOC(=O)c1ccccc1NC(=O)Cn1cnc2c1c(=O)n(C)c(=O)n2C | x | -10%
O=C(Cn1cnc2c(nnn2Cc2ccc(F)cc2)c1=O)N1CCN(c2ccccc2)CC1 | -13% | 0%
NC1=NS(=O)(=O)NC1c1ccc(Br)cc1 (configuration not stated) | -13% | 1%
C[C@@H]1CCC(=O)N(CC[C@H](Sc2ccc(Br)cc2)c2ccccc2)CC1 | -17%&-29% | u
Cc1cccc(NC(=O)CN2CCN(CC(=O)NCC3(N4CCCCC4)CCCCC3)CC2)c1C | i | -16%
